MgrA-DNA mod: modulators of Staphylococcus aureus MgrA DNA binding; fluorescence polarization; inhibition, %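 (about 10 µg/mL by stock and volumes)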; 84,000 compounds, 0.13% hits;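 active = above 50% in either of two replicates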;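 also: 0% = protein plus DNA without compound and 100% = DNA alone without protein; higher means less MgrA bound to DNA so lower polarization; one replicate is shown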
Sa helicase inh: S. aureus DNA helicase inhibition | 120,000 compounds, 0.05% hits | purified S. aureus helicase, fluorescence unwinding assay; about half of the hits fall short of the stated cut | AID 485395 | inhibition, %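 (tested at about 80 µM)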;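 active = both duplicates at 50% or more, or one of them with a favoured structure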;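 also: 0% = mean of negative control wells and 100% = mean of positive control wells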
Numbers without * were called inactive; nt = no result given; & = joins results of further samples. This is a subset; count on the stated rates, not on these rows.

Below each SMILES – MgrA-DNA mod, Sa helicase inh
O=C(Cc1nc2ccccc2[nH]1)c1ccccc1
→ 3.1, -14
Cc1ccc(S(=O)(=O)NC(=O)NN2CC3CCCC3C2)cc1 (stereo not given)
→ 1.5&0.6, nt
CC(C)N(Cc1ccc(C(=O)O)o1)C(C)C
→ -4.3, -1
O=C(c1cc2ccccc2oc1=O)N1CCCc2ccccc21
→ 2.5, 6
CC1CCN(C(=O)CS(=O)(=O)Cc2ccccc2)CC1
→ -2.4, 17
Cc1ccc(S(=O)(=O)c2cc3ccc(O)cc3oc2=O)cc1C
→ nt, -4
Cc1ccccc1-c1nnc(CN2CCC(C)CC2)o1
→ nt, -26
CCc1ccc(NC(=O)C2CCN(C(=O)c3ccccc3C)CC2)cc1
→ -7.2, 13
Cc1ccc(C)c(N2CCN(C(=O)NC3CCCCC3)CC2)c1
→ -0.2, 5
COc1ccc(P(=O)(CO)c2ccc(OC)cc2)cc1
→ -0.9, nt
O=c1cc(CSc2nnc(-c3ccc4c(c3)OCO4)o2)nc2scc(-c3ccccc3)n12
→ nt, 4
CC1C(C#N)=C(SCC(=O)c2ccc(Cl)cc2)NC2=C1C(=O)CC(C)(C)C2 (stereo not given)
→ nt, 7
CN(C)CCSc1nc2ccccc2s1
→ -1.4, 8
O=c1oc(=O)c2nc3c(=O)oc(=O)c3cc12
→ nt, -6
CCCC1CCc2c(sc(NC(=O)OC)c2C#N)C1 (stereo not given)
→ -2.6, 6
CS(=O)(=O)Cc1cccc(C(=O)Nc2sccc2C#N)c1
→ nt, -29
COC(=O)C(=C/C=C/c1cccs1)C(=O)OC
→ 0.4, -7
Cn1c(-[n+]2ccccc2)c(/C=N/NC(N)=S)sc1=O
→ nt, 30
Clc1ccccc1CSc1nnc(-c2cccs2)o1
→ 1.1, nt
Cc1cc(S(=O)(=O)NC2CCCCC2)ccc1OCC(=O)Nc1ccc2c(c1)OCO2
→ -2.8, 6
COc1ccccc1N1CCN(C(=O)C(CC(C)C)NC(=O)C2CCC(C)CC2)CC1 (stereo not given)
→ nt, 15
Clc1ccc(N2CCN(C3=Cc4ccccc4C3)CC2)cc1
→ 1.0, nt
CCOc1ccc(N2C(=O)/C(=C/c3ccccc3)N(C)C2=S)cc1
→ 1.2, 5
O=C1CCC(C(=O)Nc2cc(F)cc(F)c2)=NN1
→ 0.2, nt
O=S(=O)(Nc1ccc(I)cc1)N1CCCCC1
→ nt, -2
CCCCN(CC)S(=O)(=O)c1ccc2[nH]c(=O)cc(C(=O)NCCN3CCN(c4ccccc4F)CC3)c2c1
→ nt, 5
O=S(=O)(c1ccc(Br)cc1)c1ccc(Br)cc1
→ 0.7, 16
Cc1ccc(C(=O)NC2CCCCCC2)cc1N1CCCC1=O
→ nt, 7
CCOC(=O)C1=C(CNCc2ccccc2Cl)NC(=O)NC1c1ccc2c(c1)OCO2 (stereo not given)
→ 3.8, 6
Cc1ccc(C(=O)c2cncc(Br)c2)cc1
→ nt, -1
O=C(CN(C(=O)C1CSC(=O)C1)c1ccccc1F)NC1CCCC1 (stereo not given)
→ 1.2, 11
COc1ccccc1/C=C/C(=O)Nc1nc2ccccc2s1
→ 4.3, -24
CSc1ccc(Cl)c(C(=O)OCC(=O)c2ccccc2)c1
→ 0.4, -13
Cc1oc(-n2c(C)cc(/C=C(\C#N)c3ccc4c(c3)OCO4)c2C)c(C#N)c1C
→ nt, -8
O=C(Nc1ccc(Cl)c(Cl)c1)n1ccc(C(F)(F)F)n1
→ 2.5, nt
CN(C1CCCC1)C1CCN(C(=O)Nc2ccc(Cl)cc2)CC1
→ nt, -3
CN1C(=O)/C(=C\c2ccc(-c3ccccc3C(=O)O)o2)C(=O)N(c2ccccc2)C1=S
→ 62*, 12
CCN(CC)c1ccc(-c2n[nH]c(=S)n2-c2ccccc2)cc1
→ nt, -26
O=C(O)c1ccc(O)c(SCN2CCCCC2)c1
→ 3.5, -3
Cc1ccc(C)c2[nH]c(=O)c(CCNS(C)(=O)=O)cc12
→ nt, -22
Cc1ccc(-n2ccnc2SCC(=O)c2ccc[nH]2)c(C)c1
→ nt, -14
COC(=O)C1=C(C)Oc2oc(C)cc(=O)c2C1c1cccnc1 (stereo not given)
→ -1.9, 4
NC(=O)CSc1nc(N)cc(N)n1
→ 1.6, -19
CC(C)(C)C(=O)N1CCN(C(c2ccccc2)c2ccccc2)CC1
→ 3.5, nt
O=C1CCCC2/C(=N/O)CCCC12 (stereo not given)
→ nt, -14
O=C(c1cccc(F)c1)N1CCN(c2ccc3nncn3n2)CC1
→ -0.3, 15
CCCNC(C)C(=O)Nc1ccccc1C (stereo not given)
→ 0.8&3.0, nt
O=C(CSc1ncnc2sccc12)c1ccc(S(=O)(=O)N2CCCC2)cc1
→ nt, -3
CN(C)c1ccc(CNC(=O)C(Cc2ccccc2)n2cccc2)cc1 (stereo not given)
→ 0.7, 1
Cc1cc(C(=O)N2CCN(c3ccccc3)CC2)c(C)o1
→ nt, 12
COc1ccc2c(CNCCc3ccccc3Cl)c(C(=O)O)[nH]c2c1
→ 1.0, 16
Cc1noc(C)c1COC(=O)[C@@H](NC(=O)c1ccccc1)C(C)C
→ nt, 14
O=C1CN(C(=O)c2cccs2)c2ccccc2N1
→ -1.2, 17
CCOC(=O)/C(C#N)=C/c1ccc(OC)cc1OC
→ nt, -22
O=C(O)c1ccccc1C(=O)NCC(O)COc1ccc2ccccc2c1 (stereo not given)
→ nt, 13
CC(=O)NCCc1nc2ccccc2n1CCc1ccccc1
→ 0.1, 6
COc1ccc(COCC(O)CN2C(C)CCCC2C)cc1OC (stereo not given)
→ nt, -10
O=C(NCCN1CCOCC1)c1ccc(-n2c(=S)[nH]c3ccccc3c2=O)cc1
→ nt, 5
Cc1ccc(-c2nc(CS(=O)(=O)CC(=O)Nc3c(C)cccc3C)c(C)o2)cc1
→ nt, 5
Cc1cc(C)cc(NC(=O)COC(=O)C2CC3C=CC2C3)c1 (stereo not given)
→ nt, -3

(more compounds)
Below each SMILES – MgrA-DNA mod, Sa helicase inh
O=C(Nc1ccc(Oc2cccc(C(F)(F)F)c2)nc1)c1ccco1
→ 0.4, nt
Cc1nn2c3ccccc3nc2c2ccccc12
→ nt, 34
O=C(Nc1ccc2c(c1)S(=O)(=O)c1cc(NC(=O)C3CCCCC3)ccc1-2)C1CCCCC1
→ 1.4, 10
COC(=O)c1cc2c(cc1NC(=O)C1CCCN(S(=O)(=O)N3CCOCC3)C1)OCO2 (stereo not given)
→ nt, -31
CC1(C)N=C(N)N=C(N)N1c1ccccc1
→ 1.8, 13
Cc1nn(S(=O)(=O)N(C)C)c(C)c1C
→ -1.8, 7
Cc1nn(CC(O)Cn2c3c(c4ccccc42)CCN(C)C3=O)c(C)c1Br (stereo not given)
→ -1.9, -14
O=C(O)Cc1c(C(=O)O)[nH]c2ccccc12
→ 0.6, 7
COc1cccc(-n2ccn(CC(=O)NCCc3ccccc3)c(=O)c2=O)c1
→ nt, 16
O=C(O)C1c2ccccc2-c2ccccc21
→ -0.4, -14
CC1C/C(=N\NC(N)=O)CC(C)(C)C1 (stereo not given)
→ nt, 26
COc1ccc(CN(C)C(=O)[C@H](Cc2ccccc2)NC(=O)c2ccco2)c(OC)c1
→ nt, 8
O=C(NCc1cccnc1)c1cccc2c1C(=O)N(Cc1cccnc1)C2
→ nt, 13
Brc1ccc(-c2cn3ccccc3n2)cc1
→ nt, 5
O=C1Nc2cc(C(F)(F)F)ccc2N2CCCCC12 (stereo not given)
→ -2.0, nt
Nc1ccc(S(=O)(=O)NCC(F)(F)F)cc1
→ nt, 15
CCN1CCN(C(=O)C(C)NS(=O)(=O)c2ccc(OC)c(C)c2)CC1 (stereo not given)
→ -0.7, 8
COC(=O)c1cc2c(s1)CN(C1CCCc3ccccc31)C2 (stereo not given)
→ 0.1, 16
O=c1[nH]c2ccccc2nc1Cc1ccccc1
→ nt, 9
CN(C)CC/C=C1/c2ccccc2Sc2ccc(Cl)cc21
→ -0.6, nt
Cc1nc2ccc(Nc3nc4cc(Cl)ccc4o3)cc2s1
→ nt, 4
N#Cc1cnc(Sc2nnc(-c3ccncc3)n2-c2ccccc2)nc1N
→ 0.3, nt
C=C(C)C1CC=C(C)/C(=N/NC(=O)c2ccncc2)C1 (stereo not given)
→ 3.2, 2
CCCC(=O)Nn1c(=O)[nH]c2ccccc2c1=O
→ 1.3, 10
CN=C(Nc1ccc(C(=O)NC)cc1)c1ccccc1
→ nt, 3
Cc1c(C#N)sc(C#N)c1C
→ nt, -9
CC(=O)Nc1ncc(Cc2ccccc2F)s1
→ 1.0, -5
NC(=O)COC(=O)CCc1nc2ccccc2c(=O)[nH]1
→ nt, -15
CC(C)(C)c1cc(C(=O)Oc2cccc(C(F)(F)F)c2)n(Cc2ccccc2)n1
→ 1.2, nt
O=C(Cc1cccc2ccccc12)NCc1csc(-c2cccs2)n1
→ -1.8, nt

Structures shown so far that contain a tert-butyl group:
Below each SMILES – MgrA-DNA mod, Sa helicase inh
CC(C)(C)C(=O)N1CCN(C(c2ccccc2)c2ccccc2)CC1
→ 3.5, nt
CC(C)(C)c1cc(C(=O)Oc2cccc(C(F)(F)F)c2)n(Cc2ccccc2)n1
→ 1.2, nt

Following part:
Below each SMILES – MgrA-DNA mod, Sa helicase inh
COc1cccc2c1c(NC(=O)CCC(=O)O)nn2C
→ -6.0, nt
CCCCn1c(N)c(N(CCOC)C(=O)CN2CCCc3cc(C)ccc32)c(=O)[nH]c1=O
→ nt, -15
CC1(C)CC(=O)c2sc(Nc3nc4c(F)cccc4s3)nc2C1
→ 2.1, -10
NC(=O)C1CCN(c2csc3ccccc3c2=O)CC1
→ nt, 2
Cc1cc(C(=O)OC(C)C(=O)Nc2ccc(Cl)cc2Cl)c(C)o1 (stereo not given)
→ 0.7, 4
O=C(O)CCc1ccc(-c2cccs2)n1Cc1ccco1
→ nt, 0
CC(C)CCOc1ccc(CN)cc1
→ nt, 7
CC(=O)N1N=C(C)CC1C1C(C)C=C(C)CC1C (stereo not given)
→ 0.6, 18
CN1CCSc2ccc(C(=O)NCCCN3CCCCCC3)cc21
→ 9.6, 4
O=C(CCc1nc(-c2ccc(Cl)cc2)no1)NNS(=O)(=O)c1cc(Cl)c(Cl)cc1Cl
→ 5.0, nt
CN(c1ccccc1C(=O)N1CCN(c2ccccc2F)CC1)S(=O)(=O)c1ccccc1
→ -1.2, 6
Cn1ccc(NC(=O)NC(=O)c2c(F)cccc2F)n1
→ -0.3, nt
O=C(CCN1CCOCC1)N1N=C(c2ccccc2)CC1c1ccco1 (stereo not given)
→ -0.8, -11
CSc1scc(-c2ccc(Cl)cc2)c1C#N
→ -2.3, nt
CCN(CC)CCn1c(=S)[nH]c2cc(C(=O)N3CCCC3)ccc2c1=O
→ nt, 6
CCOC(=O)C(O)(c1ccc(NC)cc1)C(F)(F)F (stereo not given)
→ -2.3, nt
Cc1ccc(C(=O)OCC(=O)NC2CC2)s1
→ 3.0, -7
N#Cc1ccccc1OCC(=O)NCCc1ccccc1
→ nt, 8
CCOC(=O)c1ccc(OCc2ccc([N+](=O)[O-])cc2)cc1
→ -2.4, nt
COc1ccc2nc(C)cc(N3CCC(C(N)=O)CC3)c2c1
→ nt, -3
O=C(Cc1ccccc1)N/N=C/c1ccc(N2CCOCC2)cc1
→ nt, 1
CN1C(=O)CC(P(=O)(c2ccccc2)c2ccccc2)N(C)C1=O (stereo not given)
→ 0.0, 18
CCCCN(C)Cc1c(O)ccc2c(-c3ccccc3)cc(=O)oc12
→ nt, 8
O=C(CCC1CCCC1)Nc1ccc2nc3n(c(=O)c2c1)CCCCC3
→ -2.1, 17
CCOC(=O)c1sc(NC(=O)c2c(C)nn(Cc3ccccc3)c2C)cc1C
→ nt, -3
COc1ccc(/C(C#N)=C\c2ccc(-c3ccccc3Br)o2)cc1OC
→ 0.4, 21
COc1ccc(C2=NCC(C)(C)CO2)cc1OC
→ 4.2, 19
CC(C)CN1CCNCC1
→ nt, 8
COC(=O)C#CCN1C(=O)c2ccccc2C1=O
→ -3.7, 3
CCOc1ccc(NC(=O)c2sc3nc[nH]c(=O)c3c2C)cc1
→ nt, 6
Fc1ccccc1N1CCN(Cc2nc(-c3ccc(Cl)cc3Cl)no2)CC1
→ 1.1, 7
Cc1ccccc1NC(=O)COC(=O)CCc1ccccc1
→ -2.8, -18
Cc1cccc(Oc2ncccc2N)c1C
→ -6.9, nt
Nc1cc(=O)[nH]c(=O)n1Cc1ccccc1
→ 0.3, 8
CCn1ncc(C2=NOC(C(=O)Nc3c(C)nn(Cc4ccc(F)cc4)c3C)C2)c1C (stereo not given)
→ nt, 4
CCNS(=O)(=O)c1ccc(S(=O)(=O)N(Cc2ccccn2)C2CCCCC2)cc1
→ -2.6, 7
N#Cc1cn(C2CCN(Cc3ccccc3)CC2)c(=O)[nH]c1=O
→ nt, -17
O=c1oc(-c2ccccc2)nc2c1oc1ccc(Cl)cc12
→ -0.8, 0
Cc1ccccc1-c1nnc(SCC(=O)NC(=O)Nc2ccccc2F)n1C
→ nt, 33

Record cards, as listed above. Values in the order: MgrA-DNA mod	Sa helicase inh
`CN(C)c1ccc(CNC(=O)C(Cc2ccccc2)n2cccc2)cc1` (stereo not given) in the list: 0.7	1
`CCCCN(C)Cc1c(O)ccc2c(-c3ccccc3)cc(=O)oc12` in the list: nt	8
`O=C(c1cc2ccccc2oc1=O)N1CCCc2ccccc21` in the list: 2.5	6
`Cc1cccc(Oc2ncccc2N)c1C` in the list: -6.9	nt

Screening data as filed in PubChem.
